Compound activity deposited in PubChem BioAssay by National Center for Advancing Translational Sciences (NCATS).
ClpP mod = qHTS Assay for Activators of ClpP; purified B. subtilis ClpP, FRET peptide cleavage, 20 min; Potency, µM (titrated, usually from 57.5 µM), without a hit: at the highest dose activity change, negative = active; hit rate 1.9% among 340,000; active = well fitted falling curve with a large enough effect; inconclusive = small, poorly fitted or top-dose-only effect; inactive = no such curve, though single readings can be large or run the other way; also: potency is read from the fitted curve at half-maximal effect; the source files actives as falling curves though it sought activators and does not explain the sign; nearly all actives have a fitted effect of over 65% in size; many hits overshoot -100%
Target sequence (P80244 whole entry, looked up): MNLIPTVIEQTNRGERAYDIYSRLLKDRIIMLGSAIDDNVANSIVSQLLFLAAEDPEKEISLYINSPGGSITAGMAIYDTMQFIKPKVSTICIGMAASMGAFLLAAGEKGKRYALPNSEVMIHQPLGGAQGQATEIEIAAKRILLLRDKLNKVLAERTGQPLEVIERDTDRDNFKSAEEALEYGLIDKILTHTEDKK
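Buffer: 100 mM Tris/HCl pH8, 100 mM KCl, 0.05% low protease BSA, 2.5% glycerol, 0.01% Tween-20. ClpP 10 microg/mL final; 20 min RT; delta FRET normalized to ADEP and DMSO controls.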
gsp antagonist = qHTS for Antagonists of gsp, the Etiologic Mutation Responsible for Fibrous Dysplasia/McCune-Albright Syndrome: qHTS. AID 624288, 2012. gsp-mutant cells, cAMP HTRF, 30 min; control for the full effect not named in the record. hit rate 0.4% among 340,000. Potency, µM (series often up to 76.9 µM), for inactives: at the highest dose activity change, negative = inhibition, actives largely listed as inhibitors; active = falling curve of any shape with a large fitted effect; inconclusive = falling curve, mostly with a smaller effect; inactive = flat or rising curve; cell line not stated here;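 also: intracellular cAMP measured with PDE inhibitor Ro 20-1724 present during compound exposure; potency is read from the fitted curve at half-maximal effect; % is scaled to controls: 0 for no effect and ±100 for the full control effect; nearly all actives have a fitted effect of over 65% in size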
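G418-selected cells were plated in DMEM/10% FBS for 16-24 h at 37C, then treated with compounds plus the PDE inhibitor […] (300 uM solution added) for 30 min at 37C. Intracellular cAMP was measured by HTRF after 30 min lysis at room temperature.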
CtBP-E1A blk = qHTS Assay for Inhibitors of the CtBP/E1A Interaction; activity change, % (concentration not given with the values); hit rate 0.49% among 340,000; AlphaScreen GST-E1A/His-CtBP binding, 1536-well; hits give low values; control for the full effect not named in the record; in the data active means activity change below about -65%; inconclusive means about -30% to -65%; inactive means above about -30%; also: % is scaled to controls: 0 for no effect and ±100 for the full control effect
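Homogeneous bead-based format: GST-tagged E1A captured on glutathione donor beads, His-tagged CtBP on nickel acceptor beads; compounds precede bead addition by 2 h at 37 °C.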
gsp agonist = qHTS for Agonist of gsp, the Etiologic Mutation Responsible for Fibrous Dysplasia/McCune-Albright Syndrome: qHTS; gsp mutant cells, cAMP HTRF, 30 min; control for the full effect not named in the record; Potency, µM (doses to about 76.9 µM), for inactives: at the top dose activation (cAMP increase), usual class: activators; hit rate 0.13% among 340,000; active = well fitted activation curve with a large enough effect; inconclusive = small, poorly fitted or top-dose-only effect, or another doubt; inactive = no such curve, though single readings can be large or run the other way; cell line not stated here;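 also: phosphodiesterase inhibitor Ro 20-1724 added with compounds to block cAMP breakdown; potency is read from the fitted curve at half-maximal effect; nearly all actives have a fitted effect of over 60% in size; about a fifth of the inactives were tested at one dose only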
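Cells stably selected in G418 were plated at 2000/well, grown 16-24 hr, then given compounds in DMSO with the PDE inhibitor […] (300 uM solution added) for 30 min at 37C; cAMP was read by HTRF.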
Menin-MLL FL inh = qHTS Assay for Inhibitors Targeting the Menin-MLL Interaction in MLL Related Leukemias: Competition With Fluorescein Labeled MLL-derived Peptide; Fluorescence polarization, fluorescein-MLL peptide displacement from menin; FP activity change, % at 61.4 µM; 290,000 tested, under 10 active; AID 1766, 2009; inconclusive = falling polarisation curve, or a change in total fluorescence; inactive = total fluorescence flat and polarisation flat or rising; no compound was filed as active; the % refers to the polarisation; negative = inhibition;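 also: % of control where 0% means no effect; inhibitors lower the polarisation; unlabelled MLL peptide was the positive control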
TRPV1 PAM = HTS Assay for Compounds that Act as Potentiators of the Vanilloid Receptor 1. potentiation, % at 8.33 µM. hit rate 0.02% among 320,000. TRPV1-expressing cells, Fluo-8 calcium influx, capsaicin EC20 potentiation; host cell line not named in the record; control for the full effect not named in the record. AID 540277, 2011. Transient receptor potential cation channel subfamily V member 1 (Homo sapiens), Q8NER1; active means potentiation above 80%; inconclusive means 30% to 80%; inactive means below 30%; also: 0% is about no effect
Target sequence (Q8NER1 whole entry, looked up): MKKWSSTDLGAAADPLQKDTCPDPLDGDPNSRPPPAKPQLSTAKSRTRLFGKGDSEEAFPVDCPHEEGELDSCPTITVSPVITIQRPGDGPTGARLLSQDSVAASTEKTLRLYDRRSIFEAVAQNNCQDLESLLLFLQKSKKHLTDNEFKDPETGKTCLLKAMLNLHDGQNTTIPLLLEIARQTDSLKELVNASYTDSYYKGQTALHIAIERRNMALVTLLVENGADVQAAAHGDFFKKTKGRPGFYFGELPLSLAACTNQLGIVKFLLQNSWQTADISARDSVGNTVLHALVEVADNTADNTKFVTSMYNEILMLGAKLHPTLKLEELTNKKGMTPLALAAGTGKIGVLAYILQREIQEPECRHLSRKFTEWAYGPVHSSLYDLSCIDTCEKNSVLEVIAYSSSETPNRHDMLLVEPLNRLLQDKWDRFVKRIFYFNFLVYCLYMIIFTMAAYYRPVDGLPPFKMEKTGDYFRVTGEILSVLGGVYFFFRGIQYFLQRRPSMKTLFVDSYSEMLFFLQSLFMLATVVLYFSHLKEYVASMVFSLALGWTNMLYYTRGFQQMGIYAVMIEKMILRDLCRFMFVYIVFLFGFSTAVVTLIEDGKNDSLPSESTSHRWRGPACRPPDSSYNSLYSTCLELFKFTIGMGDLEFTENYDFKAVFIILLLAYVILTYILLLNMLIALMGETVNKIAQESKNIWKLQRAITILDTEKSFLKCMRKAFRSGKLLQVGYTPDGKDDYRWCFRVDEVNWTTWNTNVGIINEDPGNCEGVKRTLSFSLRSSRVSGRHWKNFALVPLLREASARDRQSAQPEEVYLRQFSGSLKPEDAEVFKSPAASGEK
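Fluo-8 calcium influx in TRPV1-expressing cells, kinetic read (ex 480/em 520 nm). Compound added and read 3 min for agonist activity, followed by capsaicin at EC20 final and 2 min further read for enhancement.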
Sfp PPTase inh = qHTS Assay for Inhibitors of Bacillus subtilis Sfp phosphopantetheinyl transferase (PPTase); 4'-phosphopantetheinyl transferase ffp (Bacillus subtilis), Q9F4F7; AID 1490, 2009; Biochemical Sfp PPTase activity, qHTS; hit rate 3.5% among 310,000; Potency, µM, without a hit: max response, negative = inhibition, usual class: inhibitors; active = well fitted inhibition curve with a large enough effect; inconclusive = small, poorly fitted or top-dose-only effect, or another doubt; inactive = no such curve, though single readings can be large or run the other way;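 also: the enzyme is Sfp with the accession as filed and its product quenches rhodamine fluorescence; potency is read from the fitted curve at half-maximal effect; 0% = enzyme reaction without inhibitor and -100% = no enzyme wells; top concentration of the series not given in the record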
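Step 1, compound plus 15 nM Sfp-PPTase, 15 min, room temperature. Step 2, add rhodamine-CoA (5 uM) and BHQ-2-YbbR (12.5 uM). Step 3, read 525/598 nm fluorescence at 0 and 30 min.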
An asterisk follows results filed as active; ? = inconclusive; . = not tested or not shown; [ ] = another dose, or the depositor's remark. No enrichment for hits. About 5.3% of those tested had a hit in this group.

SMILES	ClpP mod	gsp antagonist	CtBP-E1A blk	gsp agonist	Menin-MLL FL inh	TRPV1 PAM	Sfp PPTase inh
Cc1ccc(C(=O)N(CCCN(C)C)c2nc3ccc(Cl)cc3s2)cc1C	.	9%	-22	1%[15.4 µM]	-4.0	?	56µM*
O=C(N=c1ccn(-c2nc3ccccc3nc2NS(=O)(=O)c2ccc(Cl)cc2)cc1)c1cccs1	-1.0%	-1%	4	?	?	4	4%
O=C(CN1C(=O)NC2(CCCC2)C1=O)Nc1cccc(Cl)c1Cl	.	7%	2	10%[15.4 µM]	2.7	6	7%
Cc1ccc(NC(NC(=O)c2cccnc2)C(Cl)(Cl)Cl)cc1 (stereo not given)	1.6%	-19%	15	-42%[inhibitor]	4.5	13	16%
COc1ccc(N(CC(=O)NCCc2ccc(OC)c(OC)c2)S(=O)(=O)c2c(C)noc2C)cc1	-1.0%	-6%	1	20%	.	22	19%
O=C(c1ccc(S(=O)(=O)N2CCCC2)cc1)N1CCN(c2ccccc2)CC1	.	3%	9	8%	.	-3	15%
O=C(COC(=O)c1ccc(Cl)c(S(=O)(=O)NCc2ccccc2)c1)NCC1CCCO1 (stereo not given)	1.2%	-6%	.	-69%[inhibitor]	-0.4	-1	-3%
Cc1ccc(S(=O)(=O)NC[C@H]2O[C@@H](n3cnc4c(N)ncnc43)[C@H](O)[C@@H]2O)s1	-2.2%	10%	-10	.	.	.	.
N#CCCN(C(=O)COC(=O)C1CCN(S(=O)(=O)c2ccccc2C(F)(F)F)CC1)c1ccccc1	-1.4%	-3%	-3	2%	.	.	.
Cc1cccc(NC(=S)NCc2cccs2)c1	.	9%	-11	11%[15.4 µM]	-1.0	-17	-2%
CCCCOc1ccc(Br)cc1CSC(=N)N	.	11%	20	4%[15.4 µM]	.	-56	-4%
N#Cc1ccc(NCC(=O)Nc2ccc3c(c2)OCCO3)cc1	.	.	19	17%[15.4 µM]	0.3	-8	4%
Cc1ccc(C(=O)N/N=C\c2ccc[nH]2)cc1[N+](=O)[O-]	-1.5%	-2%	-4	?	5.6	-26	-9%
Cc1cccc(S(=O)(=O)Nc2nc3ccccc3nc2Nc2ccc3c(c2)OCO3)c1	-0.1%	28µM*	6	19%[15.4 µM]	-11	-2	-14%
CC(C)(C)NC(=O)COC(=O)c1cc(Br)ccc1Cl	1.2%	1%	.	-4%	3.5	-5	4%

Single values from the list:
For gsp antagonist, Cc1cccc(NC(=S)NCc2cccs2)c1 is entered as 9%
For gsp antagonist, O=C(N=c1ccn(-c2nc3ccccc3nc2NS(=O)(=O)c2ccc(Cl)cc2)cc1)c1cccs1 is entered as -1%

One compound at a time (already shown).
O=C(CN1C(=O)NC2(CCCC2)C1=O)Nc1cccc(Cl)c1Cl in the list: ClpP mod = .; gsp antagonist = 7%; CtBP-E1A blk = 2; gsp agonist = 10%[15.4 µM]; Menin-MLL FL inh = 2.7; TRPV1 PAM = 6; Sfp PPTase inh = 7%
O=C(N=c1ccn(-c2nc3ccccc3nc2NS(=O)(=O)c2ccc(Cl)cc2)cc1)c1cccs1 in the list: ClpP mod = -1.0%; gsp antagonist = -1%; CtBP-E1A blk = 4; gsp agonist = ?; Menin-MLL FL inh = ?; TRPV1 PAM = 4; Sfp PPTase inh = 4%

Among those listed so far, 3 contain two or more sulfur atoms:
SMILES	ClpP mod	gsp antagonist	CtBP-E1A blk	gsp agonist	Menin-MLL FL inh	TRPV1 PAM	Sfp PPTase inh
O=C(N=c1ccn(-c2nc3ccccc3nc2NS(=O)(=O)c2ccc(Cl)cc2)cc1)c1cccs1	-1.0%	-1%	4	?	?	4	4%
Cc1ccc(S(=O)(=O)NC[C@H]2O[C@@H](n3cnc4c(N)ncnc43)[C@H](O)[C@@H]2O)s1	-2.2%	10%	-10	.	.	.	.
Cc1cccc(NC(=S)NCc2cccs2)c1	.	9%	-11	11%[15.4 µM]	-1.0	-17	-2%

(listing goes on)
SMILES	ClpP mod	gsp antagonist	CtBP-E1A blk	gsp agonist	Menin-MLL FL inh	TRPV1 PAM	Sfp PPTase inh
CN(C)CCCNC(=S)NCc1ccc(Cl)cc1	0.2%	10%	2	-32%[inhibitor]	-0.7	-17	18%
CCOC(=O)CSc1n[nH]c(NC(=O)c2ccc(F)cc2)n1	-0.2%	-12%	10	-4%	2.4	8	?
Cc1csc(NC(=O)CCC(=O)N(CC(=O)NC2CCCC2)c2ccccc2)n1	.	2%	-7	3%	-2.5	5	12%
COc1cc(C(=O)NCC(c2cccs2)N2CCOCC2)cc(Br)c1OCc1ccccc1 (stereo not given)	-1.6%	-21%	.	6%	.	.	.
COc1ccc(/C=C(\NC(=O)c2ccccc2)C(=O)NCc2ccco2)cc1OC	.	7%	-2	-12%[15.4 µM]	3.2	2	14%
CCN(C(=O)c1ccc2c(c1)OCO2)C12CC3CC(CC(C3)C1)C2	-0.7%	-1%	.	1%	.	.	.
Cc1ccc(S(=O)(=O)N2CCCN(C)CC2)cc1	.	10%	7	-4%	6.6	3	9%
COc1ccc(C(=O)N2CCN(S(=O)(=O)c3ccc(Br)cc3)CC2)cc1	0.2%	-13%	4	-4%	.	-8	.
O=C(NCCCN1CCCC1=O)c1cc2ccccc2o1	-6.1%	8%	-4	-9%	.	-7	.
Cc1ccc(NC(=S)N(CCCN(C)C)Cc2cc3cc4c(cc3[nH]c2=O)OCO4)cc1	.	-11%	6	-2%[15.4 µM]	1.1	2	16%
CC(C(=O)OCC(=O)c1cccc([N+](=O)[O-])c1)N1C(=O)C2C3CCC(C3)C2C1=O (stereo not given)	0.9%	10%	12	36%	1.8	2	7%
O=C(Cn1cnc2sc(-c3ccccc3)cc2c1=O)N1CCOCC1	-15%	0%	6	-15%	-1.7	1	9%
Cc1ccc2[nH]c(=O)c3cc(C(=O)N4CCN(C(=O)c5ccco5)CC4)sc3c2c1	-17%	-2%	-2	-3%	2.2	-2	?
CCCCCCC1CC(=O)NC(=S)N1 (stereo not given)	-1.4%	7%	5	-40%[inhibitor]	0.4	10	9%
c1ccc(CNc2nc(N3CCOCC3)nc(N3CCOCC3)n2)cc1	0.0%	2%	0	-2%	0.2	-8	10%
CC(=O)c1ccc(NC(=O)Cn2nc(C)c([N+](=O)[O-])c2C)cc1	2.2%	4%	0	-7%[15.4 µM]	-1.0	2	12%
CCC(=O)Nc1ccc2c(c1)Cc1cc(NC(=O)CC)ccc1-2	-1.1%	-4%	0	2%	0.7	17	16%
Cc1cc(NS(=O)(=O)c2ccc(Nc3nc(-c4sc(NC(=O)c5ccccc5)nc4C)cs3)cc2)no1	.	.	.	.	1.3	?	?
CN1CC(=O)N(CC(=O)Nc2ccc(Br)cc2F)C1=O	.	15%	4	-11%[15.4 µM]	3.0	-12	17%
CCC(=O)N(c1nnc(SCC(=O)Nc2ccccc2Cl)s1)C1CC1	0.3%	-1%	5	-29%	.	-2	.
CC(=O)c1sc(NC(=O)C2(F)C(F)(F)C(F)(F)C(F)(F)C(F)(F)C2(F)F)nc1C	-2.0%	?	6	12%	7.2	1	-24%
CSCCC(NC(=O)c1occc1C)C(=O)O (stereo not given)	25µM*	12%	-1	11%	0.3	?	8%
CN(Cc1ccc(Cl)cc1)C(=O)COC(=O)CSc1ccc([N+](=O)[O-])cc1	-2.5%	-2%	-13	?	.	-1	.
COC(=O)C1(C)NC(c2cccc(C)c2)C2C(=O)N(c3ccc(F)cc3)C(=O)C21 (stereo not given)	-1.0%	?	2	8%	0.7	-5	6%
COCCNC(=O)C(c1ccc(C)o1)N(C(=O)c1snc(C(N)=O)c1N)c1ccc(C)cc1 (stereo not given)	-7.7%	-18%	4	-39%[inhibitor]	-2.3	-3	12%
Cc1cc(C)nc(N(C#N)Cc2ccccc2)n1	-4.6%	2%	0	-3%	-3.8	4	-39%
O=C(c1n[nH]c2ccccc12)N1CCN(S(=O)(=O)c2ccc(Cl)cc2)CC1	3.0%	-14%	2	-4%	.	13	.
CNC(=O)c1sc2nc(-c3ccc(OC)cc3)cn2c1C	-1.4%	-9%	-26	26%	-1.3	29	12%
Cc1cccc(N2C(=O)N3[C@H](c4ccc(F)cc4)[C@@H]4C(=O)N(C5CCCCC5)C(=O)[C@@H]4[C@]3(Cc3ccccc3)C2=O)c1	-0.9%	-14%	-9	-16%	0.8	8	9%
Cc1cc(Oc2ccc(C#N)cc2)nc(N2CCOCC2)n1	-5.2%	12%	-3	18%	-0.8	-3	21%
COc1ccc(C2/C(=C(/O)c3ccc(C)cc3)C(=O)C(=O)N2c2ccccn2)cc1 (stereo not given)	-15%	-18%	7	-5%[15.4 µM]	-12	12	7%
Cc1ccc(NCc2nnc(SCc3ccc(C#N)cc3)n2Cc2ccco2)c(C)c1	-1.0%	-15%	-26	-1%	0.5	-5	4%
O=C(CCc1nc2ccccc2c(=O)[nH]1)N1CCN(c2ccccc2Cl)CC1	1.9%	-17%	.	3%	.	.	.
COc1cccc(NC(=O)C(NCCc2ccc(S(N)(=O)=O)cc2)c2ccccc2)c1 (stereo not given)	.	-7%	0	15%[15.4 µM]	4.5	6	3%
CCNC(=O)CC1C(=O)N(c2ccc(F)cc2)C(=O)N1CCC(C)C (stereo not given)	-1.3%	10%	5	15%	0.1	-9	11%
CCNC(=O)C1CCCN1S(=O)(=O)c1ccc2ccccc2c1 (stereo not given)	0.9%	4%	1	-13%	.	-2	11%
Cc1ccc(S(=O)(=O)N(C)c2ccc(OCC(=O)Nc3nc4c(ccc5ccccc54)s3)cc2)cc1	-27%	4%	-2	?	11	15	12%
CC(C)CNC(=O)C1C2C=CC(C2)C1C(=O)O (stereo not given)	-0.7%	-1%	7	-10%	0.1	-3	11%
CN(C)CCCNC(=O)C1CCNCC1	0.4%	6%	5	?	5.0	27	8%
